RN4220 kill = kills Staphylococcus aureus RN4220. S. aureus RN4220 growth, OD600, 16 h. inhibition, % (concentration not given with the values). hit rate 0.33% among 330,000. AID 1259311;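 active = z-score of -3 or lower and OD600 up to 0.18 on both plates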;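 also: plate controls were untreated cells for no effect and reference antibiotic for full effect; stock transfer was 100 nL into about 80 µL; one replicate is shown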
Sa ugtP lethal = compounds lethal to S. aureus RN4220 ugtP deletion mutant. AID 1259309. hit rate 0.54% among 330,000. OD600 growth, 16 h; some inactives read as strong as hits. growth inhibition, % (no concentration beside the values);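 active = z-score under -3 and OD600 up to 0.15 on both plates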;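 also: plate controls were untreated wells for no effect and antibiotic for full effect; wells of about 80 µL received 100 nL stock; the first replicate is given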
Mtb hypoxia rep = inhibitors of hypoxia-regulated fluorescent reporter in Mycobacterium tuberculosis. hit rate 0.1% among 300,000. AID 1159583. fluorescence inhibition, % (concentration not given with the values). M. tuberculosis hypoxia-regulated fluorescent reporter, fluorescence;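 active = 35 to 45% if threefold the growth effect, above 45% if 1.5-fold the growth effect; inactive = the rest, general growth blockers included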;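 also: wells of about 50 µL received 100 nL stock; 0% = vehicle wells and 100% = reference inhibitor wells; whole bacteria with a GFP reporter of the hypoxia response; strong numbers were not always called active; many hits fall short of the cut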
Bead autofluor = counter-screen for toxin protease inhibitors: compound fluorescence; compound autofluorescence counterscreen, microsphere flow cytometry; active compounds read high; fluorescence intensity (test concentration not listed); hit rate 3.1% among 360,000;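 active = at least 3 SD above the mean of all compounds, about 16000 in these data; inconclusive = too few beads counted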;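 also: 100 nL of 1 mM stock went into each well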
PrP UTR inh = suppresses PrP 5' UTR mRNA reporter expression. cell-based PrP 5' UTR mRNA reporter, plate reader. inhibition, % (no concentration beside the values). hit rate 0.35% among 340,000. AID 488862;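 active = every replicate at 50% or more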;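 also: 0 = median of the neutral control wells; tested in H4 reporter cells; numbers are from one replicate; inactives centre near -14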
BJeLR viability = BJeLR cell viability loss | BJeLR (HRASV12) viability, CellTiter-Glo ATP luminescence, 48 h; reference of the scale not given here | inhibition, % (test concentration not listed) | hit rate 0.17% among 300,000;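 active = replicate mean above 50%; inconclusive = above 50% but judged a plate artefact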;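 also: 50 nL library stock added to about 25 µL; numbers are from one replicate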
Mtb hypoxia rep growth = further read-out of Mtb hypoxia rep, marked with its call; growth inhibition, %; measured here: M. tuberculosis growth (absorbance);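 0% = vehicle and 100% = reference antibiotic; read after six days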
An asterisk follows results filed as active; ? = inconclusive; . = not tested or not shown.

SMILES	RN4220 kill	Sa ugtP lethal	Mtb hypoxia rep	Mtb hypoxia rep growth	Bead autofluor	PrP UTR inh	BJeLR viability
CC(C)n1ncc2c(C(=O)Nc3cccc(C#N)c3)cc(C3CC3)nc21	-2.3	-21	8	1	3780	-24	.
COc1ccc(Br)cc1CN1CCC(N2CCCC2)CC1	-1.4	1	5	13	3940	-8	10
O=S(=O)(c1ccccc1)[C@@]1(c2ccc(Br)cc2)C[C@@H]2ON=C(c3cccc(Br)c3)[C@@H]2C1	.	.	.	.	4276	-14	3
CC(=O)Nc1ccc2nc(SCC(=O)O)sc2c1	-18	-2	.	.	3217	-15	2
CC(C)c1ccc(/C=C/C(=O)NNC(=O)c2cccnc2)cc1	0.5	10	1	1	4202	-16	8
COc1ccccc1CCNC(=O)CCn1c(=O)oc2ccccc21	5.3	4	4	-2	5880	-12	1
Cc1ccc(N2CN=c3s/c(=C\c4ccccn4)c(=O)n3C2)cc1	.	.	.	.	18880*	-34	9
Cc1ccc(-c2ccnc3nc(-n4cccc4)nn23)o1	4.2	2	12	9	4506	-19	-2
COc1ccc(NC(=O)CSc2ccc(NC(C)=O)cc2)cc1S(=O)(=O)N1CCCCC1	5.0	-5	9	1	2421	-17	-1
Cc1ccc(/C=C/C(=O)c2ccccc(=O)c2O)c(C)c1	19	-2	11	1	6743	-9	16
Cc1ccc(S(=O)(=O)CCC(=O)N2CCc3ccccc32)cc1	-9.1	-4	0	6	3216	-4	-1
Cc1cc(NCCCn2ccnc2)n2nc(C)c(-c3ccc(Cl)cc3)c2n1	-4.1	4	9	12	10333	.	-4
Oc1ccc(C[C@H]2CNCCN2CCc2cccc(F)c2)cc1	.	.	.	.	4254	-10	-13
Cc1ccc(CN2C(=O)C3CCCN3c3ncccc32)cc1 (configuration not stated)	1.3	5	12	-6	3220	0	5
CCCS(=O)(=O)N1CCN(C2CCC(C)CC2)CC1 (configuration not stated)	0.5	-3	-1	3	3688	-20	1
Cc1cc(C)cc(NC(=O)C2CCN(c3nc(C)cc(C)n3)CC2)c1	1.0	-1	-1	-2	15350	-14	-3
CCOC(=O)CN1C(=O)SC(=Cc2ccc(OC)c([N+](=O)[O-])c2)C1=O	4.8	-4	0	3	.	.	.
COc1ccc(Nc2nc(-c3ccc4c(c3)NC(=O)CO4)cs2)cc1	-4.9	-17	7	2	3118	-10	13
C/C(=N\NC(N)=S)c1cc(-c2ccccc2)c(-c2ccccc2)s1	.	.	.	.	4382	-10	-14
Cc1ccc(/C=N/NC(=S)N2CCOCC2)cc1	.	.	.	.	2277	-39	-1
CCOC(=O)c1ccccc1NC(=S)N1CC(C)CC(C)C1 (configuration not stated)	3.8	20	-2	9	1955	0	5
COC(=O)CCC(=O)OC1(C)C(=O)C2=CN(Cc3ccc(OC)cc3)C(c3ccc(OC)cc3)=CC2=C(Br)C1=O (configuration not stated)	9.2	5	1	2	3313	-13	3
Cc1ccc2nc(-c3cccc(NC(=O)c4ccc5c(c4)OCCO5)c3)oc2c1	0.3	6	8	17	21708*	-3	6
Cc1cccc(-c2ccc(C=Nc3c(C)n(C)n(-c4ccccc4)c3=O)o2)c1	1.3	1	.	.	4940	-24	.
CC1CCN(CC(=O)Nc2cccc(Cl)c2)CC1	6.7	1	21	32	4061	-23	-3
O=C(CN1CCc2ccccc21)Nc1ccc2c(c1)OCCCO2	-1.3	3	7	1	3351	-25	.
Cn1c(=O)c2c(O)c(C=Nc3ccc(F)cc3)c(=O)n(C)c2n(C)c1=O	2.1	4	-1	7	.	.	-13
CC(C)(C)N=C1NN=C(c2ccc(S(=O)(=O)N3CCCCC3)cc2)CS1	2.3	-3	-16	7	?	-9	-4
Cc1no[n+]([O-])c1COc1ccccc1C=Nn1nnnc1N	1.9	-1	19	13	.	.	.
COC(=O)c1c(NC(=O)CCCC(=O)O)sc(C)c1C	12	-1	8	0	3425	-16	-5
O=C(O)CC1C(=O)NCCN1C/C=C/c1ccccc1 (configuration not stated)	1.2	-3	-9	3	6025	-1	6
COc1ccc(S(=O)(=O)N2CCN(C(=O)c3ccc4ccccc4n3)CC2)cc1	3.4	1	10	5	?	.	.
Cc1ccc(C2NC(=O)NC(O)(C(F)(F)F)C2C(=O)c2ccccc2)o1 (configuration not stated)	1.1	-4	1	0	8039	0	8
CCC(C(=O)NC1CCCCC1)n1nc(C)c2c(C)n(-c3ccccc3)nc2c1=O (configuration not stated)	4.0	6	12	10	5370	-5	-2
CCOC(=O)C1=C(C(=O)OCC)N(CC)CCC1=O	6.5	14	0	1	2956	4	.
CCCCN1CC(O)=C(c2nc3ccccc3s2)C1=N	1.0	-11	.	.	4006	-42	1
CC(C)(C)c1ccc(S(=O)(=O)n2c(CN3CCOCC3)nc3ccccc32)cc1	-1.6	39	3	1	3110	-21	-1
CC(C)[C@H](NC(=O)c1ccccc1F)C(=O)NCCc1ccccc1	6.1	8	-2	-2	5231	-20	-3
COc1cc(NC(=O)CCc2nnc3ccc(N4CCOCC4)nn23)cc(OC)c1OC	-0.5	1	10	-13	3913	-5	5
COc1ccc(N2C(=O)CC(N3CCN(C4CCc5ccccc5C4)CC3)C2=O)cc1 (configuration not stated)	2.9	-1	10	6	10053	-7	-4
CCCCNc1c(-c2ccc(-c3ccc(C(C)=O)cc3)c(OC)c2)nc2cnccn12	1.7	10	18	20	7528	15	-7
CC(OC(=O)C1=NN(c2ccccc2)C(=O)CC1)C(=O)NC1CCCCC1C (configuration not stated)	-0.7	6	-7	-10	3845	-43	.
CCN(Cc1ccc(OC)c(F)c1)C(=O)C1CCCO1 (configuration not stated)	2.2	0	16	3	7170	-26	2
CCc1noc(C)c1C(=O)N1CCN(S(=O)(=O)c2cc(C)ccc2C)CC1	2.9	-2	9	5	5245	-72	-5
COc1cccc(C(c2sc3nc(C)nn3c2O)N2CCN(c3ccccc3F)CC2)c1 (configuration not stated)	3.9	-6	2	3	5620	-22	-4
CCOC(=O)/C(=N\Nc1ccccc1Cl)N1CC(C)OC(C)C1 (configuration not stated)	.	.	.	.	4553	-3	-7
COc1ccc(C2=NOC(C(=O)Nc3cccnc3)C2)cc1 (configuration not stated)	3.7	6	9	2	6890	1	4
CC(=O)Nc1ccc(NC(=O)C(C)OC(=O)[C@@H]2CCCN2C(=O)c2cccs2)cc1 (some centres not stated)	-0.5	-2	5	-5	3528	-29	.
O=C(NC1CC1)C1=C[C@@H](c2ccc3c(c2)OCO3)C[C@@H](OCCCCO)O1	.	.	.	.	4076	-26	19
CCOC(=O)C1CCN(C(=O)c2ccccc2NS(=O)(=O)c2cc(C)ccc2C)CC1	7.7	2	6	12	2387	-9	3
c1ccc(-c2csc(NC3=NCCCCC3)n2)cc1	-2.5	-15	-2	-5	1972	-18	-2
O=C(CCSc1ccccc1)Nc1ncccn1	3.6	6	-2	12	9031	-48	3
OC(c1nnc(-c2ccccc2)o1)c1cccs1 (configuration not stated)	-1.3	1	4	-12	4160	-33	2
CCOc1cc(/C=C2\C(=O)N(c3ccc(C(N)=O)cc3)N=C2C)ccc1OC(=O)c1cccs1	14	6	9	-15	3439	-15	15
CC(C)CN(C(=O)C1CCC1)c1c(N)n(Cc2ccccc2)c(=O)[nH]c1=O	0.9	5	3	-2	?	-12	.
COC(=O)c1ccccc1NC(=O)C1CC(c2ccccc2O)=NO1 (configuration not stated)	10	-16	18	6	6095	-5	3
CCOC(=O)CNC(=O)c1sc(NC(=O)/C=C/c2ccccc2)nc1C	0.2	-9	-2	-10	4677	-5	6
C[C@]12c3[nH]c4ccccc4c3CCN1C(=O)C(CC(=O)NCCc1ccccn1)C[C@@H]2C(=O)N1CCOCC1 (some centres not stated)	0.9	2	0	0	3654	-2	.
CC(Sc1ccccc1)C(=O)N(CCC#N)Cc1cccnc1 (configuration not stated)	6.1	2	-1	14	4058	-1	.
COc1ccc(NS(=O)(=O)c2cccc3nsnc23)cc1OC	3.7	7	15	14	12633	-25	1

Compounds shown so far with an NH in an aromatic ring, in the order listed:
SMILES	RN4220 kill	Sa ugtP lethal	Mtb hypoxia rep	Mtb hypoxia rep growth	Bead autofluor	PrP UTR inh	BJeLR viability
CC(C)CN(C(=O)C1CCC1)c1c(N)n(Cc2ccccc2)c(=O)[nH]c1=O	0.9	5	3	-2	?	-12	.
C[C@]12c3[nH]c4ccccc4c3CCN1C(=O)C(CC(=O)NCCc1ccccn1)C[C@@H]2C(=O)N1CCOCC1 (some centres not stated)	0.9	2	0	0	3654	-2	.

Other records
SMILES	RN4220 kill	Sa ugtP lethal	Mtb hypoxia rep	Mtb hypoxia rep growth	Bead autofluor	PrP UTR inh	BJeLR viability
CCOC(=O)C1(CCCc2ccccc2)CCN(C(=O)CCc2cnccn2)CC1	10	2	14	5	2612	-6	6
COc1cccc(C=NNC(=O)C(C)Cn2cnc3ccccc32)c1 (configuration not stated)	4.6	2	6	4	.	.	.
C/C(=N/NC(=O)CN1CCN(Cc2ccccc2Cl)CC1)c1cccnc1	.	.	.	.	3251	-7	7
C/C(=N\NC(=O)c1ccc(CSc2nncn2C)cc1)c1ccc(Cl)cc1	.	.	.	.	2089	-25	7
CC(=NNC(=O)CCc1ccc(S(=O)(=O)N2CCOCC2)cc1)c1ccccc1Cl	4.5	1	2	9	.	.	.
Cc1ccc(/C=N/c2sc3c(c2C(N)=O)CCCC3)o1	.	.	.	.	4278	-36	-1
CCOc1ccc(C(=S)NC2CCCCC2)cc1OC	3.9	18	3	0	15814	-10	7
COc1ccc(COC(=O)CN2C(=O)NC3(CC(C)CC(C)(C)C3)C2=O)cc1F (configuration not stated)	4.6	6	8	8	2942	-27	.
O=C(NN1CCOCC1)c1cc(-c2cccc(Cl)c2)nc2ccccc12	3.1	7	11	6	7717	-16	-15
COc1ccc(Br)cc1S(=O)(=O)NCCCN1CCOCC1	5.4	13	7	-3	4254	-4	2
Cc1ccc(CN=c2c([N+](=O)[O-])nn(-c3ccc4c(c3)OCCO4)n2O)cc1	11	14	3	2	8900	-29	-1
CC1(C)CC(=O)N(CC(=O)NC2CCCC2)c2ccccc2S1(=O)=O	0.0	2	.	.	6046	-7	-10
S=C(NCc1ccco1)N/N=C/c1ccccc1Cl	.	.	.	.	2313	-4	-12
O=c1[nH]c(O)c(C=Nc2cccc(F)c2)c(=O)[nH]1	0.3	-2	12	1	4250	-10	-9
Cn1cc(/C=N/NC(=O)COc2ccccc2[N+](=O)[O-])c2ccccc21	.	.	.	.	2422	-24	2
O=C(CCNS(=O)(=O)c1ccc(F)c(F)c1)NCCN1CCOCC1	2.9	6	2	-3	8718	-3	.
COC(=O)c1cccc(NC(=O)NC23CC4CC(CC(C4)C2)C3)c1	5.1	-12	.	.	3764	-48	2
CC(C)c1ccc(S(=O)(=O)c2cc3cc(Br)ccc3oc2=O)cc1	-2.5	-1	-9	-1	2385	-15	-7
CSc1ccccc1C(=O)OCC(=O)N1CCCCCC1	3.9	4	13	8	3282	-23	.
C=CCN1C(=O)CN=C1Nc1ccc(OC)cc1OC	6.0	3	.	.	3172	5	-3
CCCNC(=O)c1c(O)c2c([nH]c1=O)CCCC2	3.0	-5	6	10	3501	-25	4
COc1ccc(CCN(C)CC(=O)Nc2cc(C)nc3ccccc23)cc1OC	2.2	3	7	1	6386	-2	9
O=C(NN=Cc1cccc([N+](=O)[O-])c1)c1ccncc1	13	0	10	9	.	.	.
COc1ccc(OC)c(C(=O)NC(CC(N)=O)c2ccc(N3CCCCCC3)c([N+](=O)[O-])c2)c1 (configuration not stated)	3.1	2	18	15	3489	-19	-8

Some of the entries above in another layout.
> Cn1cc(/C=N/NC(=O)COc2ccccc2[N+](=O)[O-])c2ccccc21
- RN4220 kill: .
- Sa ugtP lethal: .
- Mtb hypoxia rep: .
- Mtb hypoxia rep growth: .
- Bead autofluor: 2422
- PrP UTR inh: -24
- BJeLR viability: 2

> O=C(CCNS(=O)(=O)c1ccc(F)c(F)c1)NCCN1CCOCC1
- RN4220 kill: 2.9
- Sa ugtP lethal: 6
- Mtb hypoxia rep: 2
- Mtb hypoxia rep growth: -3
- Bead autofluor: 8718
- PrP UTR inh: -3
- BJeLR viability: .

(continued)
SMILES	RN4220 kill	Sa ugtP lethal	Mtb hypoxia rep	Mtb hypoxia rep growth	Bead autofluor	PrP UTR inh	BJeLR viability
Cc1nn2c(c1-c1ccccc1)NC1=C(C(=O)CCC1)C2c1ccccc1 (configuration not stated)	0.6	0	4	7	12476	5	-15
O=C(N/N=C/c1cccc(Cl)c1)C(c1ccncc1)N1CCOCC1 (configuration not stated)	.	.	.	.	4169	-19	-6
O=C1NC(=Nc2cccc(O)c2)S/C1=C\c1cccc([N+](=O)[O-])c1	-3.5	3	16	6	3829	-15	5
COc1ccc(Nc2cc(Nc3cc(OC)c(OC)c(OC)c3)ncn2)cc1	-3.1	18	13	8	3526	-6	-4
